Ecoli rRNA inh: selective bacterial rRNA inhibition in E. coli | E. coli WT GFP vs humanized-ribosome RFP mutants, fluorescence, 24 h; active compounds read low; DMSO median 0, no signal -100 | GFP signal change (wild-type ribosome), % (concentration not given with the values) | 350,000 tested, 1.6% active | AID 720706;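 active = significant combined selectivity score with lowered wild-type GFP, culture density cut under 30%, mutant RFP and density less affected; inactive = any of these conditions unmet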; note: one replicate is shown; some compounds called inactive have numbers as strong as hits
A1 inh: inhibitors of the anti-apoptotic protein A1, read as caspase activation; MEF A1-2A-BIM cells, Caspase-Glo 3/7 luminescence, 3 h; percent of clofoctol response, vehicle zero; caspase activation, % (concentration not given with the values); 330,000 tested, 0.066% active;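 active = over half of replicate activation scores above 10%, or exactly half above 10 with the replicate mean above 10; inconclusive = replicate mean below 10 yet half the replicates above 10; inactive = over half of replicates below 10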;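 note: wells of about 30 µL received 50 nL stock; many hits fall short of the cut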
Beta cell apopt: beta cell apoptosis inhibition; 300,000 tested, 0.8% active; INS-1E cytokine-induced death, ATP luminescence, 48 h; percent of positive-control rescue, neutral wells zero; AID 435005; protection from apoptosis, % (no concentration beside the values);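 active = all replicates at 75% or more, or half of them and the mean; inconclusive = half reach 75% but not the mean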;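 note: 0% = cytokine-treated negative control wells and 100% = positive control rescue; higher means more ATP so stronger rescue from cytokine killing; wells of about 40 µL received 100 nL stock; the first replicate is given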
T cruzi inh: blocks replication of Trypanosoma cruzi. T. cruzi beta-gal in NIH3T3, luminescence, 90 h. inhibition, % (no concentration beside the values). 300,000 tested, 1.4% active. AID 1885;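 active = mean inhibition across valid replicates above about 55%, limit read from the data; inconclusive = mean below that limit but half or more replicates reach it; inactive = mean below it, under half of replicates reach it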;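 note: signal also drops with host cell toxicity which is not excluded here; 0% = plate median of DMSO wells and 100% = zero luminescence signal; higher percent means less beta-gal luminescence so fewer parasites; stock transfer was 50 nL into about 50 µL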
MLL AF4-AF9 inh: blocks AF4 peptide binding to human AF9; P42568; AlphaScreen, biotin-AF4 peptide binding to FLAG-AF9; inhibition, % at 10 µM; 350,000 tested, 0.47% active; AID 651704;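 active = every replicate reaching a set inhibition limit, whatever the replicate mean, cut at about 25% in these data; inconclusive = mean inhibition reaches that limit but some replicates miss it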;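 note: 0% = plate neutral control median and 100% = total signal loss; the record names both 10 and 1 µM as test concentration; the first replicate is given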
Target sequence (P42568 whole entry, looked up): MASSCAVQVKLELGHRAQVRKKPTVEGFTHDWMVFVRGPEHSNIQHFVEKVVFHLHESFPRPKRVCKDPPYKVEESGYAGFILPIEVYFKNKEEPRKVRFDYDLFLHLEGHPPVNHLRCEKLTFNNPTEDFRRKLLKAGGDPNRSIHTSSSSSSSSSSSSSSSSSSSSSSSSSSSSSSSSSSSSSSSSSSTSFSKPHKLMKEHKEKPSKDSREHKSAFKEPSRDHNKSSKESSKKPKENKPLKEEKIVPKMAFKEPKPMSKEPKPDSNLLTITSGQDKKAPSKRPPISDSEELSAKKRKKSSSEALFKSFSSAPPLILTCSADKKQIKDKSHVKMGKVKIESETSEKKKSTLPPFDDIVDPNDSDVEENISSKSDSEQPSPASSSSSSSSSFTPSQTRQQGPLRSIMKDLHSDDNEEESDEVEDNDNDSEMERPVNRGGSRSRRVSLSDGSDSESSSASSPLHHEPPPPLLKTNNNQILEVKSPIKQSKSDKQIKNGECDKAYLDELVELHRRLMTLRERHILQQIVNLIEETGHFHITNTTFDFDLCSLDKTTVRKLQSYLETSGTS
RanGTP-Imp inh: disruptors of Ran-importin-beta complex formation – biochemical, FRET, CFP-Ran, YFP-importin-beta, homogeneous, primary screen. cell-free CFP-Ran/YFP-importin-beta FRET ratio. inhibition, % (no concentration beside the values). 300,000 tested, 1.1% active. AID 2216;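 active = most replicates above 15%; inconclusive = exactly half above 15%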;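 note: 0% = DMSO wells and 100% = Ran loaded with GDP instead of GTP; wells of about 40 µL received 100 nL stock; the first replicate is given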
Calb FLC: C. albicans growth modulation with fluconazole | C. albicans CaCi-2 (fluconazole-resistant clinical isolate) + fluconazole, Alamar Blue growth, 48 h | growth inhibition, % (no concentration beside the values) | AID 1979 | 300,000 tested, 0.57% active;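 active = most replicates above 75%; inconclusive = exactly half above 75%; inactive = most below 75%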;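 note: all wells also contain fluconazole at 8 µg/ml as a sub-toxic cotreatment; 0% = median of DMSO wells and 100% = median of geldanamycin control wells; wells of about 8 µL received 7.5 nL stock; the first replicate is given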
Vif TR-FRET: inhibitors of Vif binding to APOBEC3G peptide, primary screen, biochemical, TR-FRET, GST-Vif 1-94, biotin-A3G peptide, dose response retest (AID 1117319). inhibition, %, or IC50 in µM where a hit was titrated. TR-FRET GST-Vif / biotin-A3G peptide binding; higher % means a stronger effect; test concentration not given here; strong numbers were not always called active. 260,000 tested, 0.57% active;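 active = above the screen mean plus three standard deviations and confirmed in dose response; inconclusive = results disagree or hit not tested in dose response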;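 note: Vif residues 1-94 fused to GST binding biotinylated APOBEC3G peptide 110-148; 0% = full assay without inhibitor and 100% = GST in place of GST-Vif; retest series ran down from 100 µM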
Ecoli rRNA inh OD600: second read-out of Ecoli rRNA inh, no call of its own (marks repeat the call); OD600 change, %; measured here: OD600 growth;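 optical density of the mix in the first replicate; 0 = DMSO median and -100 = no signal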
Ecoli rRNA inh RFP: further read-out of Ecoli rRNA inh, marked with its call; RFP signal change, %; measured here: RFP humanized mutant strains;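 first replicate; 0 = DMSO median and -100 = no signal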
* hit, by the source's call; u = inconclusive; x = no result given. Not all compounds are listed. The share of hits here may be higher or lower than overall.

SMILES | Ecoli rRNA inh | Ecoli rRNA inh OD600 | Ecoli rRNA inh RFP | A1 inh | Beta cell apopt | T cruzi inh | MLL AF4-AF9 inh | RanGTP-Imp inh | Calb FLC | Vif TR-FRET
CSc1cccc(NC(=S)N(C(C)C)C(C)c2ccccn2)c1 (stereo unspecified) | -3 | -2 | -2.1 | 0.3 | 2 | -18 | 5.5 | -2.6 | -13 | -3%
CCOC(=O)N1CCC(=NNC(=O)NC2CCCCC2)CC1 | 7 | 4 | -1.6 | 0.1 | -2 | 0 | -17 | 1.2 | -7 | 0%
Clc1ccc(Cn2c(-c3cccnc3Cl)nc3ccccc32)c(Cl)c1 | x | x | x | 0.2 | -2 | 31 | x | 2.0 | 1 | 24%
COc1ccc(-c2nc3c(c(=O)[nH]c(=O)n3Cc3ccccc3)n2CCO)cc1 | 26 | 9 | 10 | 0.3 | 5 | -5 | -2.0 | u | 0 | x
COc1ccc(C(=O)NNC(=S)NC(=O)c2ccccc2[N+](=O)[O-])cc1 | x | x | x | 0.0 | -4 | -34 | 5.2 | 4.1 | 6 | 18%
CC1CCCCC1NC(=O)C(=O)NCC1CCCO1 (stereo unspecified) | x | x | x | -0.1 | -8 | -11 | x | -1.0 | -7 | -3%
CCOC(=O)c1cc(-c2ccccc2)sc1NC(=O)C(C)Sc1nnc(C)s1 (stereo unspecified) | -17 | -12 | 9.7 | 1.4 | -3 | 46 | 3.3 | u | -2 | -12%
Cc1cc(C)c(C)c(C(=O)COC(=O)CNC(=O)CNC(=O)c2ccco2)c1C | 2 | 8 | -1.9 | 0.0 | 0 | -19 | -0.2 | 3.1 | -4 | -5%
CC(C)NC(=O)CN1C(=O)NC(CCc2ccccc2)C1=O (stereo unspecified) | x | x | x | 0.3 | -5 | 4 | x | 0.6 | 20 | 3%
COC(=O)c1c(-c2cc(OC)cc(OC)c2)sc2ccc(OC)cc12 | 0 | -5 | -4.6 | 0.9 | 2 | x | -4.0 | x | x | -21%
CCOc1cc(/C=N/NC(N)=O)ccc1OCC(=O)Nc1ccc(C)c(C)c1 | -10 | -6 | -0.3 | 0.0 | 0 | -36 | -0.1 | 3.6 | -6 | -1%
Cn1ncc([N+](=O)[O-])c1C(=O)Nc1ccccc1Cl | 5 | 9 | -0.5 | 0.3 | -6 | -18 | 1.7 | 3.9 | -1 | x
CCC(=O)N1c2ccccc2NC2=C(C(=O)CCC2)C1c1ccc(N(C)C)cc1 (stereo unspecified) | x | x | x | 1.5 | x | 6 | x | 3.0 | -4 | u
CC(C)Sc1nnc(-c2ccc(S(=O)(=O)N3CCOCC3)cc2)n1C | 6 | 5 | 2.3 | -0.6 | -6 | -4 | 0.6 | 1.6 | 5 | x
O=C(NCCCn1ccnc1)c1cccnc1 | x | x | x | -0.8 | -4 | -1 | x | 3.0 | -4 | 15%
C#CCn1cc(C=C2C(=O)c3ccccc3C2=O)c2ccccc21 | 12 | -13 | -6.1 | x | x | -13 | -0.3 | -42 | 7 | x
COc1ccc(NC(=O)c2cc3ccc4c5ccccc5[nH]c4c3cc2O)cc1 | -4 | 6 | 2.6 | 0.0 | 3 | -14 | 0.8 | -1.8 | 5 | -3%
CCc1ccc(OS(=O)(=O)c2cn(C)c(=O)n(C)c2=O)cc1 | 7 | 5 | -3.7 | -0.1 | -5 | -8 | -1.8 | 1.5 | -3 | x
COc1ccccc1N1CCN(C(=O)c2cc(C(C)(C)C)oc2C)CC1 | x | x | x | 1.2 | -7 | x | 6.1 | 0.1 | 2 | 12%
CC(=O)C1=NN(c2ccc(Cl)cc2)C(c2ccc3c(c2)OCO3)N(C(C)=O)N1C (stereo unspecified) | 0 | 4 | -3.0 | -0.3 | 1 | 23 | 22 | 2.5 | -7 | -13%
Cc1sc(NC(=O)CN2CCOCC2)c(C(=O)c2ccccc2)c1C | x | x | x | 0.2 | -4 | -7 | x | 4.4 | 7 | -6%
CCOC(=O)C1CCCN(C2CC(=O)N(c3ccc(C)c(C)c3)C2=O)C1 (stereo unspecified) | x | x | x | 0.5 | -1 | -27 | x | 1.7 | -3 | 2%
N#CC1(P(=O)(c2ccccc2)c2ccccc2)CC1 | x | x | x | 0.1 | -1 | -11 | x | -1.1 | 11 | -1%
Cc1ccnc(-n2sc3ccccc3c2=O)n1 | x | x | x | -0.4 | -23 | 19 | x | -2.0 | 6 | 8%
CCCCn1c(-c2csc3c2CCCC3)n[nH]c1=S | x | x | x | 0.8 | 0 | -1 | x | -0.6 | -15 | -2%
Cc1ccc(-c2nnc(COC(=O)c3cccs3)o2)cc1 | -14 | -9 | -3.8 | 0.1 | -11 | 1 | 0.7 | 0.1 | -3 | x
CCOC(=O)C1=C(C)NC(=O)NC1c1ccc(OC(C)C(=O)O)c(OC)c1 (stereo unspecified) | 27 | 22 | 9.4 | 0.0 | -2 | -16 | x | 1.3 | -2 | 2%
CC1CCCN(S(=O)(=O)Cc2ccc(Cl)cc2)C1 (stereo unspecified) | 8 | 6 | -7.1 | -0.3 | -3 | -1 | -4.9 | u | -8 | 4%
CC1(C)Cc2c(sc(NC(=O)C(=O)N3CCCC3)c2C(=O)O)CO1 | -2 | 7 | -2.1 | 0.1 | -5 | 0 | -2.5 | 6.0 | -2 | -12%
CC1=C(C(=O)OC(C)C)C(c2cccnc2)C2=C(CC(C)(C)CC2=O)N1 (stereo unspecified) | x | x | x | 0.1 | -1 | 39 | x | 19* | -21 | -7%
C[C@@H](C(=O)Nc1ccc2c(c1)OCO2)n1c(=O)[nH]c2ccccc2c1=O | 8 | 12 | 1.5 | -0.2 | 2 | -22 | 2.4 | 2.4 | 0 | x
O=c1c2ccccc2cnn1Cc1ccc(Br)cc1F | -3 | 4 | -1.9 | 0.4 | -6 | -5 | -2.9 | -1.2 | 16 | x
C/C(CC(=O)Nc1c(C)cc(C)cc1C)=N\NC(=O)c1cnccn1 | x | x | x | 1.3 | -7 | 9 | x | u | -9 | -3%
O=[N+]([O-])c1cc(Oc2cccnc2)cc([N+](=O)[O-])c1 | 1 | 6 | -3.2 | 1.1 | 24 | 61* | -2.9 | -2.8 | 19 | u
CCn1nc(C(=O)NCc2ccco2)c(Cl)c1Cl | 12 | 8 | -5.6 | -0.1 | 3 | 7 | -2.0 | -0.7 | -8 | x
CC(C)OCCCNC(=S)N1CCC(C(=O)c2ccc3c(c2)OCCO3)CC1 | -20 | -30 | -3.8 | -0.5 | -2 | 9 | 0.2 | 1.0 | -29 | -1%
CC(=O)N1CC(=O)N(Cc2ccccc2)/C(=C/c2ccccc2)C1=O | 7 | 0 | -1.0 | 0.4 | -5 | 0 | 4.1 | -0.5 | -8 | 7%
CCOc1cc(C2Nc3ccccc3C(=O)N2c2ccccc2OC)ccc1O (stereo unspecified) | x | x | x | -0.9 | -1 | -8 | x | 4.1 | -1 | -3%
CN(C)S(=O)(=O)c1cccc(NC(=O)CSc2nc3ccccc3[nH]2)c1 | -26 | -26 | 0.3 | 1.0 | x | 7 | 0.1 | 0.6 | 0 | 9%
COc1cc(N=Nc2c(C)n(C)n(-c3ccccc3)c2=O)ccc1N | 5 | 4 | 3.7 | -1.5 | 10 | 3 | 3.6 | -4.7 | -4 | x
CC(C)(C)C(=O)COC(=O)C1=NN(c2ccccc2)C(=O)CC1 | 21 | 15 | 1.2 | 0.3 | -4 | 2 | -6.8 | 4.6 | 0 | 1%
CN(C(=O)CSc1nnc(CNC(=O)c2ccccc2)o1)c1ccccc1 | 2 | 5 | 0.6 | -0.4 | 13 | 7 | -5.8 | -3.2 | 7 | -4%
CCc1ccc(CN(C)C(=O)c2cc(COc3ccc(OC)cc3Cl)on2)nc1 | -34 | -44 | -5.1 | 1.0 | -5 | 1 | -0.2 | 0.8 | -5 | x
COc1cccc(CN(C)C(=O)Cc2ccc(OC)c(S(=O)(=O)N3CCOCC3)c2)c1 | 1 | 0 | -2.3 | 0.0 | 0 | -15 | -1.6 | -1.5 | 6 | 4%
Cc1ccc(O)c(C(=O)c2cnc(/N=C(\N)N(C)C)nc2)c1 | -3 | 0 | -4.5 | 0.4 | -4 | -4 | -1.8 | 2.0 | -1 | x
CSc1ncccc1C(=O)N1CCN(S(=O)(=O)c2ccc3ccccc3c2)CC1 | -13 | -9 | 2.2 | -0.2 | 2 | x | -2.9 | x | x | -8%
COc1ccc2nc(Nc3nc(-c4ccncc4)cs3)sc2c1 | 10 | 10 | 2.0 | -1.1 | -9 | u | -3.2 | -2.0 | 25 | -4%
Cc1ccc(C)c(-n2[nH]c3c4c(ccc3c2=O)C(=O)c2ccccc2C4=O)c1 | x | x | x | 0.9 | 4 | -3 | x | u | u | x
CCc1ccccc1NC(=O)CN1CCN(CC(=O)NCc2ccc(Cl)cc2)CC1 | -6 | -16 | 12 | 1.4 | -3 | x | -2.3 | x | x | 1%
Cn1c(O)c(N=NC(=O)Cn2c(C(F)(F)F)nc3ccccc32)c2ccccc21 | x | x | x | -0.8 | -7 | -6 | -1.5 | 1.3 | 9 | 17%
CCCCSc1nnc(-c2ccccc2NC(C)=O)c(=O)[nH]1 | 1 | -8 | -1.7 | 1.4 | -9 | x | -2.2 | u | 1 | 1%
Cc1cccc(NC(=O)CSc2nnc(-c3ccccc3C)o2)c1 | x | x | x | x | x | 7 | x | 8.6 | u | 67%
Cc1cc(CN(C)Cc2c(C(=O)N3CCCCCCC3)nc3ccc(Cl)cn23)n[nH]1 | -4 | -6 | -0.6 | -0.6 | -5 | 6 | 1.3 | 1.4 | -5 | 5%
Cn1c(=O)c2c(ncn2CCCNC2=CC(C)(C)CC(=O)C2)n(C)c1=O | x | x | x | x | x | -13 | x | 3.2 | -18 | 68%
CCC(=O)Nc1cccc(C(=O)N(Cc2ccccc2)Cc2ccccc2)c1 | -27 | -19 | -2.9 | 0.1 | -3 | 21 | -1.1 | -0.9 | -23 | x
O=C(COc1ccc(Cl)cc1Cl)Nn1c(=S)[nH]c2ncccc2c1=O | 9 | 8 | 0.6 | 0.7 | -2 | 5 | -1.3 | 0.7 | 1 | 17%
O=C(NC1CCCC1)C(c1ccncc1)N(C(=O)c1csnn1)c1cccc(F)c1 (stereo unspecified) | 7 | 6 | 6.7 | 0.0 | -2 | 0 | 7.5 | 0.5 | 1 | x
Cn1ncc(Br)c1NC(=O)CSc1ccc(Cl)cc1 | -1 | 6 | -0.9 | 0.1 | 3 | -7 | -6.9 | -3.7 | 1 | u
O=C(CC1Nc2cccc3cccc(c23)NC1=O)Nc1ccccc1 (stereo unspecified) | x | x | x | -0.5 | -15 | -4 | x | -3.7 | -11 | u
COc1ccc(S(=O)(=O)NCC(=O)N(CC(=O)NCc2ccco2)C2CCCC2)cc1 | 10 | 15 | 6.7 | -0.3 | 0 | -8 | -4.5 | 1.4 | 1 | x

From PubChem BioAssay
